AmpC inh no det – blocks E. coli AmpC beta-lactamase in absence of detergent | P00811 | AmpC nitrocefin hydrolysis, absorbance 480 nm, no detergent; potencies from a single point are estimates | Potency, µM (top dose mostly 28.7 µM), for the others: top-dose activity change, negative = inhibition | actives 1.8% (n = 71,000) | AID 585; active = falling curve, for most hits resting on a single point; inconclusive = weak or doubtful change; inactive = flat or rising curve; further: % of control where 0% means no effect; about half of the hits show no inhibition at the top dose; a quarter of the inactives give rising signals
Target sequence (P00811 whole entry, looked up): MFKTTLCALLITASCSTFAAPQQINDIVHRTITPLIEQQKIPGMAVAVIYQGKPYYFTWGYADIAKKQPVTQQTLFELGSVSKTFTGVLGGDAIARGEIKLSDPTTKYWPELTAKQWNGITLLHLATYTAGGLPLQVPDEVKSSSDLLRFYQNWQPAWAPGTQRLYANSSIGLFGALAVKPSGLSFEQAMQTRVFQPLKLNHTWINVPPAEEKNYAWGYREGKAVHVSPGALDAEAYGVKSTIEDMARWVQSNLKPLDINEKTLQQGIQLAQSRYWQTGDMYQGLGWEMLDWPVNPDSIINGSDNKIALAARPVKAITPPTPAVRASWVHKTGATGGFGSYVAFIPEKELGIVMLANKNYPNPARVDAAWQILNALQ
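AmpC in 20 mM phosphate buffer pH 7.0 was preincubated 15 min at room temperature with compounds. Nitrocefin (800 uM stock) was then added and hydrolysis followed at 480 nm every 20 s for 4 min.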
Active calls of the source: *; u = inconclusive; & = joins results of further samples; [ ] = another dose, or the depositor's remark. Potency means the concentration at half of the fitted maximal effect. These rows are one share of the data, so the mix of outcomes need not match the whole.

smiles,AmpC inh no det
CCn1cc(C(=O)NC2CCc3ccccc32)c(=O)c2ccc(C)nc21 (stereo not drawn),24.0%
O=C(Cn1nc(-c2ccccc2)c2ccccc2c1=O)NCC1CCCO1 (stereo not drawn),24.5%
CCOC(=O)c1cc2sccc2n1CC(=O)N1CCc2ccccc21,-10.3%
CCOC(=O)c1cnc(SCc2nc(N)nc(Nc3ccc(C)cc3)n2)nc1N,56.1%
Cc1cc(Nc2ccc(F)cc2Cl)n2ncnc2n1,7.1%
CCS(=O)(=O)NCc1csc(C)n1,6.6%
O=C(Nc1cccc(F)c1)N1CC2(CCN(C(=O)Oc3ccccc3)CC2)C1,32.5%
COC(=O)CSc1nnnn1-c1cccc2ccccc12,5.3%
O=C(Nc1ccc(-c2nnc(-c3ccccc3)o2)cc1)C1CCCO1 (stereo not drawn),22.2%
O=C(NC1CCCc2ccccc21)C1CCN(c2c(N3CCCC3)c(=O)c2=O)CC1 (stereo not drawn),3.98µM*[single pt active]
C=CCn1c(=O)/c(=C\c2ccsc2)s/c1=C(/C#N)C(=O)NCCN1CCOCC1,143.6%
COc1cc(NC(=O)C(F)(F)F)cc(OC)c1,-3.4%
COc1cccc(NC(=O)CN2C(=O)C3(OCCCO3)c3ccccc32)c1,0.3%
COc1ccc(C)cc1NC(=O)CSc1nnc(COc2ccc(C)cc2)n1Cc1ccco1,59.8%
CC/C(=C(\c1ccccc1)c1ccc(OCCN(C)C)cc1)c1ccccc1,119.0%
COc1ccc(-n2c(SCC(=O)N3CCCC3)nc3c([nH]c4ccccc43)c2=O)cc1,-0.5%
O=S(=O)(c1ccc(F)cc1)N1CCN(c2ncnc3c2cnn3-c2ccccc2)CC1,51.2%
CCOC(=O)C1(C(F)(F)F)N=C(c2cccnc2)OC(N2CCOCC2)=N1 (stereo not drawn),25.7%
O=C1Nc2ccccc2OC1CC(=O)N1CCN(c2cccc(C(F)(F)F)c2)CC1 (stereo not drawn),46.5%
COc1cccc2c1OC1(C)CC2/C(=C(\C)O)C(=O)N1 (stereo not drawn),3.5%
CC(C)NC[C@H](O)c1ccc(N)c(C#N)c1,4.3%
CC(C)(C)n1ncc2c(=O)n(CC(=O)c3ccccc3)cnc21,8.9%
COc1cc(OC)cc(-n2nnnc2SCC(=O)N2CCCc3ccccc32)c1,6.7%
O=c1c(-c2ccccc2)[n+]([O-])c2ccccc2n1O,-6.9%
OC(CN(c1ccccc1)c1ccccc1)Cn1cnc2ccccc21 (stereo not drawn),79.7%
O=C(C1CC1)N1CCN=C1SCc1ccccc1,9.4%
c1ccc2c(c1)[I+]c1ccccc1-2,10.0%&-1.8%
O=C(Cc1cccs1)NCc1cn2ccccc2n1,10.6%
CC(=O)c1cc(CN2C(=O)CCC2=O)cs1,-12.3%
O=C(Nc1cccc(O)c1)c1cc(S(=O)(=O)N2CCCC2)ccc1Cl,-9.3%
COc1ccccc1NC(=O)CSc1nnc(C)n1CCc1ccccc1,53.5%
Cc1ccc(S(=O)(=O)N2CCCCC2)cc1C(=O)Nc1ccc2cn[nH]c2c1,4.2%
COC(=O)c1[nH]c2cccc(Cl)c2c1NC(=O)CN1CCCCC1C (stereo not drawn),49.2%
COC(=O)CSc1nnc(CNC(=O)Cc2ccccc2)n1C,-6.2%
Fc1ccc(-c2cc3nc4c(c(N5CCOCC5)n3n2)CCCC4)cc1,98.8%
CC1CCc2c(sc(NC(=O)c3noc4c3CCCC4)c2C(N)=O)C1 (stereo not drawn),28.6%
O=C(Nc1ccccc1F)N(CCCN1CCOCC1)Cc1cc2cc3c(cc2[nH]c1=O)OCCO3,80.9%
CCOC(=O)N1CCC(NC(=O)Cn2ncc3ccccc32)CC1,-0.7%
Cc1ccc2c(c1)nnn2C1CCN(C(=O)NC23CC4CC(CC(C4)C2)C3)CC1,3.2%
CCc1ccc2oc(=O)cc(CN3CCN(c4ccc(F)cc4)CC3)c2c1,19.5%
CCOc1ccc(-n2c(Cc3ccccc3)nnc2SCc2c(C)noc2C)cc1,97.2%
C=CCn1c(C(C)NC(=O)C(C)(C)C)nc2ccccc21 (stereo not drawn),4.2%
Cn1c(=O)[nH]c(=O)c2c1nc(N1CCCCCC1)n2CCN1CCCCCC1,-7.0%
O=C(COc1ccc2oc(-c3ccccc3)cc(=O)c2c1)NCc1ccco1,10.8%
CCC(C)NC(=O)CC1Oc2ccc(C)cc2NC1=O (stereo not drawn),3.98µM*[single pt active]
CCOc1ccccc1CNS(=O)(=O)c1ccc2[nH]c(=O)sc2c1,u
CN(C)c1ccnc2sc(C(=O)NCc3ccccc3)c(N)c12,8.2%
c1ccc(-c2cc(-c3nn4c(-c5ccco5)nnc4s3)c3ccccc3n2)cc1,56.3%
CCn1c2ccccc2c2cc(NC(=O)CSc3nnnn3-c3ccccc3)ccc21,10µM*
COc1ccc(C2N(c3ccc(Cl)cc3)C(=O)C3CCCN32)cc1 (stereo not drawn),28.1%
CC12CCCCC1N(O)CN2O (stereo not drawn),-11.3%
CC1(C)N([O-])C(c2cccs2)=C[N+]1=O,-4.1%
CC(C)(C)NC[C@@H](O)COc1ccccc1C1CCCC1,3.3%[12.8 µM]
CCOC(=O)c1cnc2c(cnn2CC)c1NN=C(C)C,81.2%&15.9%
O=C(CN1C(=O)COc2ccccc21)NCCC1=CCCCC1,-8.9%
c1ccc(-c2nc(N3CCN(c4ccccc4)CC3)nc(-n3ccnc3)n2)cc1,25.9%
Cc1nc2cnc(N(C)C)nc2n(C2CC2)c1=O,1.2%
COC(=O)c1cnn2c(C(F)(F)F)cc(-c3ccco3)nc12,-1.3%
CCCCSc1nc(C)c(CC(=O)O)c(=O)[nH]1,-16.6%
CC1(C)S[C@@H]2[C@H](NC(=O)[C@@H](N)c3ccccc3)C(=O)N2[C@H]1C(=O)O[C@H]1OC(=O)c2ccccc21,0.0398µM*

New compounds follow.
smiles,AmpC inh no det
O=S(=O)(N1CCOCC1)n1c(Cc2ccccc2)nc2ccccc21,53.1%
COc1ccc(-c2nnc(SCC(=O)NC(C)C)n2CC2CCCO2)cc1OC (stereo not drawn),6.5%
COCCn1c(=O)c(-c2ccccc2)nc2cnc(OCc3ccccc3)nc21,64.0%
CCC(C)(C)n1nnnc1C(c1ccc2ncccc2c1)N1CCN(Cc2ccc3c(c2)OCO3)CC1 (stereo not drawn),121.1%
CC(C)(N)CO[C@H]1C[C@H]2CC[C@@]1(C)C2(C)C,-7.5%[5.75 µM]
COc1ccc(-c2nc3cnc(OC)nc3n(-c3ccccc3)c2=O)cc1,9.8%
CNc1cc(-c2c(C)noc2C)ncn1,-6.0%
CCCCCCCCCCCCCCC/C=C\[C@H](O)[C@@H](NC(=O)CCCCCCCCCCCCC)OC (tested in a mixture with another compound),0.3%
C[C@@H]1CCC/C=C\[C@H]2C[C@H](O)C[C@@H]2[C@H](O)/C=C\C(=O)O1,6.6%
Cn1c(=N)c(S(=O)(=O)c2ccccc2)cc2c(=O)n3ccccc3nc21,22.7%
COc1ccc(C2C3=C(CC(C)(C)CC3=O)Nc3c2c(=O)[nH]c2nc(C)nn32)cc1 (stereo not drawn),4.4%
CCCOc1cccc(C(=O)O)c1,-16.8%
CC12CCC(C(=O)N3CCN(C(=O)C45CCC(C)(C(=O)O4)C5(C)C)CC3)(OC1=O)C2(C)C,-0.1%
COC(=O)c1onc(C(=O)c2ccccc2)c1C(=O)OC,4.0%
COc1ccccc1N1CCN(CCCCNS(=O)(=O)c2cccc3c(N(C)C)cccc23)CC1,71.1%
CC(C)n1ncc(C(N)=O)c1N,-10.7%
COCC(=O)NC1CCN(C(=O)Nc2ccc(Br)cc2)CC1,1.1%
CCc1nnc(NC(=O)CSc2nnc(-c3ccco3)n2C)s1,-6.6%
CC1CCN(c2nc(-c3ccco3)c3c(c2C#N)CC(C)(C)OC3)CC1,26.8%
O=C(O)c1ccc(NC(=O)C2CCCCC2)cc1,1.5%
CCOc1ccccc1-n1c(SCC(N)=O)nnc1-c1cccnc1,3.1%
CCOC(=O)N1CCN(C(c2ccc(C(C)C)cc2)c2sc3nc(C)nn3c2O)CC1 (stereo not drawn),-1.0%
Cc1nc2ccc(S(=O)(=O)NCC(=O)NCCN3CCCCC3C)cc2s1 (stereo not drawn),5.5%
O=C(C1CC(c2ccc(F)cc2)=NO1)N1CCc2ccccc2C1 (stereo not drawn),3.98µM*[single pt active]
CC(C)OCCCNC(=O)c1cccs1,-6.1%
CCOc1ccc(C(=O)Nc2cc(C)on2)cc1OCC,-5.7%
COC(=O)[C@H](CCSC)NC(=O)NCc1ccccn1,0.3%
N#Cc1c(C(F)(F)F)cc(C2CC2)[nH]c1=O,3.98µM*[single pt active]
O=C(OCN1C(=O)c2ccccc2C1=O)c1cccs1,-14.2%
Cn1cccc1C1(C(F)(F)F)NCCNC1=O (stereo not drawn),-0.8%
O=C(O)c1ccccc1NCc1ccncc1,-8.6%
CC(=O)c1cccc(NC(=O)N2CCCC2C(=O)NCc2ccc(F)cc2)c1 (stereo not drawn),6.3%
O=C(N/N=C\c1ccc([N+](=O)[O-])o1)c1ccc(O)cc1,-25.0%[12.8 µM]
Cc1[nH]c2ccc(Br)cc2c(=O)c1CN1CCCCC1,-1.0%
COc1cc(C(=O)NCc2ccc(-c3nc4ccccc4o3)cc2)cc(OC)c1OC,24.5%
CCn1cc(Br)c(C(=O)N(C)Cc2ccccc2)n1,22.9%
Cc1ccc(-n2nnnc2SCc2nnc(-c3ccccc3Br)o2)c(C)c1,-3.0%
Fc1ccc(Nc2nc(-c3ccoc3)nc3ccccc23)cc1,-11.1%
CCOc1ccc(C(=O)Nc2ccncc2)cc1,-6.1%
CC(=O)c1cc2c(cc1NC(=O)CN1CCN(c3ccc(F)cc3)CC1)OCO2,39.4%
CC(=O)NCCC(Cc1ccccc1)c1ccco1 (stereo not drawn),-3.6%
O=C(COC(=O)CCc1nc2ccccc2s1)Nc1ccc(S(=O)(=O)N2CCOCC2)cc1,48.3%
COC(=O)c1cc(Br)c(=O)n(CCN(C(C)C)C(C)C)c1,8.1%
CC(=O)Nc1ccc2oc(-c3ccccc3Br)nc2c1,44.6%
O=C(Nc1nccs1)c1ccc(COc2ccc(Cl)cc2)o1,-16.4%
Cc1ccc(C2CCN(C(=O)Nc3ccccc3)C2)cc1 (stereo not drawn),-4.9%
COC(=O)c1ccc(NC(=O)CN2CCCC2)cc1,-3.4%
Cc1ccc(C2NC(=O)c3c(sc4c3CCN(C)C4)N2)o1 (stereo not drawn),14.6%

A different layout for part of the listing above.
SMILES: Cc1ccc(-n2nnnc2SCc2nnc(-c3ccccc3Br)o2)c(C)c1
  AmpC inh no det = -3.0%

SMILES: Fc1ccc(Nc2nc(-c3ccoc3)nc3ccccc23)cc1
  AmpC inh no det = -11.1%

SMILES: CCOc1ccc(C(=O)Nc2ccncc2)cc1
  AmpC inh no det = -6.1%

SMILES: CC(=O)c1cc2c(cc1NC(=O)CN1CCN(c3ccc(F)cc3)CC1)OCO2
  AmpC inh no det = 39.4%

Continued.
smiles,AmpC inh no det
Clc1ccc(Cn2nnc(-c3ccc(CN4CCOCC4)cc3)n2)cc1,116.7%
COc1ccc(N/C(N)=N/c2nc(CSc3ccc(C)cc3)cc(=O)[nH]2)cc1,22.6%
O=C(CSc1ncnc2sc3c(c12)CCCCC3)NCc1ccco1,22.5%
O=C(CNC(=O)c1ccco1)Nc1cc(Cl)ccc1N1CCOCC1,29.8%
O=C(CSc1ncnc2c1cnn2-c1ccccc1)Nc1ccccc1,-11.4%
CC1CN(C(=O)CN2C(=O)c3ccccc3S2(=O)=O)CC(C)O1 (stereo not drawn),2.8%
Cc1nn(Cc2ccc(C(=O)Nc3ccc(C(=O)OC(C)C)cc3)o2)c(C)c1Cl,34.9%
Cc1nn(-c2nc3ccccc3s2)c(N)c1-c1ccc(Cl)cc1,-24.3%
CC1(C)Cc2c(sc3c2c(=N)n(Cc2ccco2)c(=O)n3CC(=O)Nc2ccccc2)CO1,59.8%
Cc1noc(C)c1S(=O)(=O)N(CC(=O)N1CCc2ccccc21)c1ccc(C(C)C)cc1,3.98µM*[single pt active]
CC(=O)Nc1ccc(Cl)c(C(N)=O)c1,-3.2%
COc1cccc(-n2nnnc2SCC(=O)c2ccc(NC(C)=O)cc2)c1,-1.1%
CC(C)CNC(=O)c1cccc(NC(=O)c2ccc(NC(=O)c3ccco3)cc2)c1,15.8µM*[single pt active]
CCOC(=O)c1ccc(CNC(=O)c2cc3cccc(OC)c3oc2=O)o1,9.2%
CS(=O)(=O)N1CCCC(C(=O)NCc2ccco2)C1 (stereo not drawn),9.6%
CC(C)NC(=O)N(O)C1N(Cc2ccc3c(c2)OCO3)C(=S)SC1(C)C (stereo not drawn),10.5%
Cc1ccccc1S(=O)(=O)Cc1ccc(C(=O)N2CC(C)CC(C)C2)o1 (stereo not drawn),3.98µM*[single pt active]
O=C(c1ccncc1)N1CCC2(CC1)CN(Cc1ccccc1)C2,-3.3%
O=C(CCSc1ccccc1)N1CCOCC1,-3.0%
c1csc(CNc2ncnc3ccc(-c4ccoc4)cc23)c1,2.1%

Assay outcomes as filed in PubChem.
